S aureus helic = blocks Staphylococcus aureus DNA helicase; 0.05% of 120,000 active; purified S. aureus helicase, fluorescence unwinding assay; about half of the hits fall short of the stated cut; inhibition, %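 (tested at about 80 µM)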;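 active = both duplicates at 50% or more, or one of them with a favoured structure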;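 note: 0% = mean of negative control wells and 100% = mean of positive control wells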
MgrA DNA FP = S. aureus MgrA-DNA binding modulation | fluorescence polarization | 0.13% of 84,000 active | inhibition, %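 (about 10 µg/mL by stock and volumes)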;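 active = above 50% in either of two replicates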;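 note: 0% = protein plus DNA without compound and 100% = DNA alone without protein; higher means less MgrA bound to DNA so lower polarization; one replicate is shown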
Active calls of the source: *; nt = not tested or not shown; & = joins results of further samples.

SMILES | S aureus helic | MgrA DNA FP
COc1cccc(-c2ccc(=O)n(CC(=O)N3CCN(c4ccccc4)CC3)n2)c1 | 18 | nt
NC(=O)CCSc1ccc(Cl)cc1 | -9 | nt
CC(=O)n1c(=O)n(C(C)=O)c2ccccc21 | 0 | 4.8
COC(=O)C1C(=O)C=C(Nc2ccc(F)cc2F)CC1c1ccc(OC)cc1 (configuration not stated) | 10 | nt
O=C(NCc1cccs1)c1ccccc1 | nt | 0.6
CCNc1cc(N2CCCC2)c2noc3c2c1C(=O)c1ccccc1-3 | -13 | 1.9
Cc1ccc(Cn2ccsc2=NC(=O)COC(=O)C2CC2)cc1 | -5 | nt
Cc1ccc(Nc2nc3nonc3nc2Nc2ccccc2OC(=O)c2ccccc2)cc1C | nt | -2.0
NC(=O)c1nnn(Cc2ccc(Cl)cc2)c1N | 8 | nt
CC(=O)Nc1cccc(-c2nc3ccccc3[nH]2)c1 | 5 | 0.9
Cc1oc(-c2ccc(C(=O)O)cc2)nc1CSc1ccc(Cl)cc1 | 5 | -4.6
COc1ccccc1-c1cc(NC(=NCC2CCCO2)SC)n[nH]1 (configuration not stated) | 14 | nt
COc1cccc(N2CCN(C(=O)C3=NNC(=O)CC3)CC2)c1 | 12 | nt
CCOc1ccccc1OC(=O)C(C)(C)C | -3 | 2.5
O=C(COC(=O)c1ccccc1O)c1cccs1 | 0 | nt
CO[C@@H]1[C@@H](O[C@@H]2O[C@H](C)[C@@H](O[C@H]3C[C@@](C)(O)[C@H](O)[C@H](C)O3)[C@H](N(C)C)[C@H]2O)[C@@H](CC=O)C[C@@H](C)[C@@H](O[C@H]2CC[C@H](N(C)C)[C@@H](C)O2)/C=C/C=C/C[C@H](C)OC(=O)C[C@H]1O | nt | 4.5
Cc1ccc2cc(C3CC(c4ccco4)=NN3S(C)(=O)=O)c(=O)[nH]c2c1 (configuration not stated) | 0 | 1.1
COc1cc(C(=O)n2c(SCc3ccc(F)cc3)nc3ccccc32)cc(OC)c1OC | 6 | 4.3
CC(=O)Nc1ccc(SCC(=O)NC2(C#N)CCCCC2)cc1 | 21 | nt
O=C(O)c1cncc(C#Cc2ccccc2)c1 | nt | 3.0
CCn1c(=O)cc(OCC(=O)Nc2cccc(OC)c2)c2ccccc21 | 4 | -4.9
CN1C(=O)S/C(=C\c2ccccc2Br)C1=O | 6 | -1.1
S=C(NNc1ccccc1)Nc1ccccc1 | 9 | nt
Cc1c(Cl)cccc1SCC(=O)O | nt | -0.3
N#C/C(C(=O)c1ccccc1)=C1/SC=C(N)N1c1ccccc1 | -87 | -2.5
SMILES | S aureus helic | MgrA DNA FP
CC(C)CC1(c2ccccc2)NC(=O)NC1=O (configuration not stated) | -9 | nt
COC(=O)c1sc(C(=O)OC)c2c1OCCO2 | 15 | -1.9
COc1cc2c(cc1OC)C(C)N(C(=O)CC(C)(C)CC(=O)O)CC2 (configuration not stated) | nt | -1.2
c1ccc(Nc2ncnc3ccccc23)cc1 | -13 | 0.1
O=C(NN1CC(C(=O)OCc2ccccc2F)CC1=O)c1ccccc1 (configuration not stated) | 8 | 0.0
COc1ccccc1NC(=O)CON | nt | -3.3
COC(=O)/C(C#N)=C/N(C)C | -10 | nt
CCSc1nnc(NC(=O)c2cccc(S(=O)(=O)N3CC(C)CC(C)C3)c2)s1 (configuration not stated) | -5 | nt
COc1ccc(C2NC(c3ccc(OC)cc3)C(C)C(=O)C2C)cc1 (configuration not stated) | 1 | -0.2
COc1ccc(Nc2cc(-c3ccccc3)nc3nncn23)cc1OC | 2 | -0.6
O=C1NCCN=C1c1cc(Cl)sc1Cl | -11 | nt
Cc1ccc(-c2ccccc2)n1-c1cccnc1 | 8 | nt
Cc1ccc2c(c1)cc(CN(C(=S)NCc1ccco1)C1CCCCC1)c1nnnn12 | 19 | -2.8
O=C(NCCCN1CCCC1=O)c1ccc2c(c1)OCCO2 | 10 | 0.4
Cc1nc2ccc(S(=O)(=O)NCC(=O)N3CCCC3)cc2s1 | 15 | 0.3
Cc1ccc2c(c1)C(c1ccccc1)N(C(=O)c1ccccc1)CC(=O)N2 (configuration not stated) | 21 | nt
O=C(Nc1ccncc1)c1cccc(COc2ccc3ccccc3c2)c1 | 4 | 1.1
CCOc1ccccc1NC(=O)c1cccc2c1C(=O)N(Cc1cccnc1)C2 | 9 | 5.3
Cn1c(SCc2ccc3c(c2)OCO3)nnc1-c1ccccc1 | 4 | -2.3
Cc1[nH]nc2oc(=O)c([N+](=O)[O-])c(C)c12 | nt | 1.2
CC1(C)C=C(c2ccc(O)cc2)CC(C)(C)N1 | 2 | nt
O=C(Nc1cccc2ccccc12)NC1Cc2ccccc2C1 | nt | 2.5
CC1(C)CC(NC(=O)NC2CCCCC2)CC(C)(C)N1 | 5 | 2.0
O=C(NCc1nc2ccccc2n1Cc1ccc(Cl)cc1)c1ccccc1 | -6 | 1.1
O=C(O)c1cccc(C(=O)c2cccc(C(=O)O)c2)c1 | 7 | nt

Gathered by group: the entries above containing fluorine
SMILES | S aureus helic | MgrA DNA FP
COC(=O)C1C(=O)C=C(Nc2ccc(F)cc2F)CC1c1ccc(OC)cc1 (configuration not stated) | 10 | nt
COc1cc(C(=O)n2c(SCc3ccc(F)cc3)nc3ccccc32)cc(OC)c1OC | 6 | 4.3
O=C(NN1CC(C(=O)OCc2ccccc2F)CC1=O)c1ccccc1 (configuration not stated) | 8 | 0.0

Additional structures.
SMILES | S aureus helic | MgrA DNA FP
C=CCn1c(SCC(=O)/C(C#N)=C(\c2ccc(F)cc2)N2CCOCC2)nnc1-c1ccccc1 | 8 | nt
C=CCSC1=C(C#N)C(c2ccc(C)o2)CC(=O)N1 (configuration not stated) | -24 | nt
O=C(NCCC1=CCCCC1)c1n[nH]c(=O)c2ccccc12 | 13 | 3.1
NNC(=O)c1ccc(-n2cnnn2)cc1 | -15 | nt
O=C(CCN1CCN(C2c3ccccc3-c3ccccc32)CC1)Nc1ccccc1F | 6 | -1.9
COc1ccc2c3c(c(=O)oc2c1OCC(=O)C(C)(C)C)CCCC3 | 6 | -4.3
CS(=O)(=O)N1CCN(c2ncnc3c(-c4ccc(Cl)cc4)nsc23)CC1 | -6 | 0.3
C/C(=C\C(=O)Nc1cscc1C)C(=O)O | -5 | nt
C=CCN(CC=C)C(=O)C1c2ccccc2Oc2ccccc21 | -5 | -1.8
COc1ccc(OC)c(NC(=O)CCN2CCN(Cc3cccc4ccccc34)CC2)c1 | 3 | -1.7
Cc1cccc(C(=O)Nc2cccc(NC(=O)c3cccc(C)c3)n2)c1 | 21 | nt
N#CC(C#N)=C(N)/C(C#N)=C/c1ccc2[nH]ccc2c1 | nt | -0.3&-0.9
Oc1ccccc1C=Nc1ccc(N=Cc2ccccc2O)cc1 | -172 | 2.6
CC(=O)Nc1c(C)ccc(NC(=O)C2C(C=C(C)C)C2(C)C)c1C (configuration not stated) | 8 | -1.8
COc1ccc(C(=O)OCc2nc3ccccc3s2)cc1 | 6 | nt
CC1CCC(NC(=O)Cn2ncc3c4ccccc4n(Cc4ccccc4)c3c2=O)CC1 (configuration not stated) | 10 | -1.1
CCOc1ccc(-c2csc(/C(C#N)=C\Nc3ccc(NC(C)=O)cc3)n2)cc1 | -9 | nt
Cc1cc(NC(=O)COC(=O)Cc2ccsc2)no1 | -2 | nt
NC[C@H](O)c1ccc(O)c(O)c1 | nt | 7.5
O=C(Cc1ccccc1F)Nc1nnc(C2CC2)s1 | nt | -1.4
COc1ccc(C(=O)c2coc3ccc(OC)cc3c2=O)cc1 | 11 | 3.0
C=CCn1c(Cl)c(/C=N/NC(=O)c2cc(C)oc2C)s/c1=N\S(=O)(=O)c1cccs1 | -48 | nt
Oc1ccccc1-c1nnc(SCc2ccccc2)o1 | 7 | 1.2
COC(=O)C1=C(N)N(c2ccc(F)cc2)C2=C(C(=O)CC(C)(C)C2)C1c1ccccc1 (configuration not stated) | 6 | 2.5
CCC1CCCCN1C(=S)Nc1ccc(OC(F)F)cc1 (configuration not stated) | -1 | nt
SMILES | S aureus helic | MgrA DNA FP
CC(=O)n1c(O)c(N=NC(=O)COc2ccc(Cl)cc2)c2ccccc21 | 35 | nt
COc1ccc(-c2cc(C(=O)NNC3=NCCCCC3)c3c(C)noc3n2)c(F)c1 | -9 | nt
CCOC(=O)c1ccc(S(=O)(=O)N2CCN(/C=C/C(=O)c3ccccc3)CC2)cc1 | 6 | nt
CN1CC(=O)NC1=NC(=O)C1CCCN(S(=O)(=O)c2ccc3c(c2)oc(=O)n3C)C1 (configuration not stated) | 10 | 1.0
CCc1ccc(-c2csc(Nc3ncccn3)n2)cc1 | -6 | 1.7
COc1cc(NC(N)=S)c(OC)cc1Cl | nt | -0.9
CCn1c(C)nc2cc(OC)ccc21 | -12 | -0.6
O=C(N/N=C/C=C/c1cn(Cc2ccccc2)nn1)C1CC1 | 6 | nt
O=C(NC(=S)NCc1ccncc1)c1ccccc1 | nt | -3.4
CN1C(=O)C(C)(C)c2cc(S(=O)(=O)NCCc3ccco3)ccc21 | 19 | nt
CCC(=O)Nc1nnc(-c2cccs2)o1 | -9 | nt
c1ccc(-c2nnc3ccc(SCc4ccccn4)nn23)cc1 | 6 | nt
O=C1c2ccccc2C(=O)N1C1CCN(Cc2ccccc2)CC1 | nt | -1.6
CN(C(=O)c1cccc(N)c1)C1CCCCC1 | 6 | -1.9
CC1CN(C(=O)c2ccc(C#N)cc2)CC(C)O1 (configuration not stated) | -3 | nt
CC(=O)SCC(C)C(=O)O (configuration not stated) | -18 | nt
O=C1CN(C(=O)COc2ccccc2)c2ccccc2N1 | -3 | 0.3
CC(NC(=O)c1cc(=O)[nH]c2ccc(Br)cc12)c1ccc2c(c1)OCCO2 (configuration not stated) | 2 | 0.3
CCOc1ccc(C(=O)NCC(=O)n2nc(C)cc2C)cc1 | 3 | -0.7
Cc1ccc(NC(=O)Cc2n[nH]c(=O)c3ccccc23)c(O)c1 | 12 | nt
COc1ccc(S(=O)(=O)Nc2ccc(C(=O)NCC(=O)O)cc2)cc1 | -2 | nt
CCCNC(=O)CCn1nc(C)c2c(C)n(-c3ccccc3)nc2c1=O | -14 | nt
CCC(C)(C)NC(=O)Cc1ccc(F)cc1 | 5 | -0.8
CC(C)(C)c1cc(NC(=O)c2ccc3c(c2)S(=O)(=O)c2ccccc2C3=O)on1 | 0 | nt
O=c1[nH]c2ccccc2c2oc(-c3ccccc3)nc12 | nt | 0.1

4 compounds drawn at random from those above, as already listed:
SMILES | S aureus helic | MgrA DNA FP
COC(=O)C1=C(N)N(c2ccc(F)cc2)C2=C(C(=O)CC(C)(C)C2)C1c1ccccc1 (configuration not stated) | 6 | 2.5
O=c1[nH]c2ccccc2c2oc(-c3ccccc3)nc12 | nt | 0.1
O=C1NCCN=C1c1cc(Cl)sc1Cl | -11 | nt
COc1ccccc1-c1cc(NC(=NCC2CCCO2)SC)n[nH]1 (configuration not stated) | 14 | nt

Remaining list, next part
SMILES | S aureus helic | MgrA DNA FP
CCSc1nnc(NC2=NCCC2)s1 | -7 | nt
CCSc1cnn(C2CCCCC2)c(=O)c1Cl | -13 | 1.6
CC(C)CN1Cc2cccc(C(=O)O)c2C1=O | -8 | nt
CCOC(=O)CC1Sc2ccccc2N=C1SCC(=O)Nc1cccc(C(F)(F)F)c1 (configuration not stated) | nt | 0.5
COc1cccc(NC(N)=O)c1 | nt | -1.1
O=C(CCn1c(=O)sc2ccccc21)Nc1nccs1 | 15 | nt
c1ccc(CCNc2cc(-c3ccccc3)nc3nncn23)cc1 | 5 | 1.0
CNC(=O)C1CCN(S(=O)(=O)c2c(C)noc2/C=C/c2ccc(OC)cc2)CC1 | 6 | nt
CC(=O)Oc1ccc2occ(C(=O)c3ccc(Br)s3)c2c1 | -10 | -1.1
C=CCn1c(=S)sc2c(=O)n(CC(=O)Nc3ccc(F)cc3)cnc21 | -13 | nt
CC(c1ccccc1)N1CC(C(=O)Nc2sccc2C#N)CC1=O (configuration not stated) | -17 | nt
COC(=O)C1(C)Oc2cc(Cl)ccc2NC1=O (configuration not stated) | nt | 4.2
Cc1oc(CC(C)C)cc1C(=O)O | 2 | 3.0
CC1CCCCC1NC(=O)/C(C#N)=C/c1cccc(O)c1 (configuration not stated) | 6 | nt
O=C1CC(C(=O)O)S/C(=N\N=C2CCCC2)N1 (configuration not stated) | 18 | nt
CC(C)CN(C(=O)CN1CCN(c2ncccn2)CC1)C1CCS(=O)(=O)C1 (configuration not stated) | 30 | nt
O=C1CCCc2nc(N3CCOCC3)sc21 | 8 | -2.0
CCOc1ccc2nc(N3CCCC(C(=O)Nc4ccc(C)cc4Cl)C3)sc2c1 (configuration not stated) | 9 | -0.2
O=C(COC(=O)c1ccccc1-c1ccccc1)c1ccccc1 | 1 | -2.9
Cc1ccc(C(=O)c2ccccc2C(=O)OCC(N)=O)cc1 | 7 | -1.6
COc1cccc(C(=O)Nc2ccc(-c3cn4ccccc4n3)cc2)c1 | -15 | 0.8
Cc1ccc(-c2nn(C)c(=O)c3ccccc23)cc1CNS(C)(=O)=O | 0 | 1.4
Cc1ccc(CSc2nnc(N)s2)c(C)c1 | 3 | -1.5
c1ccc(CSc2nc3ccccc3[nH]2)cc1 | -3 | nt
COc1ccccc1CNc1ccc(Br)cn1 | 13 | nt
O=c1[nH]nc(SCc2nnc(-c3ccc(Cl)cc3)o2)n1C1CCCCC1 | nt | -2.1
CC(C)CCNC(=O)c1ccc2c(c1)N(Cc1ccccc1)CCS2 | 5 | -2.7
O=C(NC(OCC1COC(C(F)(F)F)(C(F)(F)F)O1)(C(F)(F)F)C(F)(F)F)c1ccco1 (configuration not stated) | -8 | nt

An excerpt of these results, with tabs:
smiles	S aureus helic	MgrA DNA FP
Cc1nc2ccc(S(=O)(=O)NCC(=O)N3CCCC3)cc2s1	15	0.3
COc1ccc(C(=O)c2coc3ccc(OC)cc3c2=O)cc1	11	3.0
COc1ccc2c3c(c(=O)oc2c1OCC(=O)C(C)(C)C)CCCC3	6	-4.3
c1ccc(-c2nnc3ccc(SCc4ccccn4)nn23)cc1	6	nt
Cc1ccc(C(=O)c2ccccc2C(=O)OCC(N)=O)cc1	7	-1.6

Screening results: PubChem, ICCB-Longwood Screening Facility, Harvard Medical School

This is a subset (hit frequency here may not be typical).
